H5N1 CPE: MDCK cell protection from H5N1 avian flu; hit rate 0.07% among 96,000; inhibition, % at 50 µM; cytopathic effect, luminescence, 72 h; stronger effect = higher value; no value below 0 was filed and about half of the inactive calls have no number; reference of the scale not given here; AID 740, 2007; in the data active = inhibition above about 25%
The depositor's hits bear a star; i = inactive. An excerpt; rates above refer to the full screens.

Structure | H5N1 CPE
O=C(/C=C/c1ccc(Cl)c([N+](=O)[O-])c1)Nc1cccnc1 | i
CCCc1nnc(NC(=O)C2CCCO2)s1 (stereo not drawn) | i
COc1ccc(OCc2nnc(SC(C)C(=O)Nc3nccs3)n2-c2ccccc2)cc1 (stereo not drawn) | 1.4
Cc1ccc(-c2csc3ncnc(Nc4ccc(N5CCOCC5)cc4)c23)cc1 | i
CC(C)(O)C(=O)NN(C(=O)c1ccccc1)c1ccc2ccccc2c1 | i
Cc1ccc(NS(=O)(=O)c2ccc(NC(=O)c3cccc(NC(=O)C(C)C)c3)cc2)cc1 | 6.1
CCN=C1SC(CC(=O)NCCc2ccc(OC)cc2)C(=O)N1CC (stereo not drawn) | i
COc1ccc(CCNC(=O)Cn2cnc3c(cnn3-c3ccccc3Cl)c2=O)cc1OC | 0.0
O=C(COC(=O)COc1ccccc1)Nc1ccccc1OC(F)F | i
CCOC(=O)c1[nH]c2cc3c(cc2c1NC(=O)CN1CCC(C)CC1)OCO3 | 1.3
Cc1cc(C)nc(SC2CCCCC2O)n1 (stereo not drawn) | 0.9
Nc1cc(=O)[nH]c(SCc2ccc(Cl)cc2)n1 | 1.2
COc1cc(C2/C(=C(/O)c3ccc(F)cc3)C(=O)C(=O)N2CCCC(=O)O)ccc1O (stereo not drawn) | i
CCC(=O)Nc1cccc(-c2nc3ccccc3o2)c1 | 0.4
Cc1ccccc1CSc1nc2n(n1)C(c1cccs1)C1=C(CCCC1=O)N2 (stereo not drawn) | i
COc1ccc(C2=NOC(C(=O)Nc3cc(C)on3)C2)cc1 (stereo not drawn) | 1.7
CCOC(=O)c1ccc(NC(=O)C2=C(C)Nc3nc(CCCO)nn3C2c2ccc(OC)cc2)cc1 (stereo not drawn) | i
CC(=O)Oc1c(C)cc(O)c2ccccc12 | i
Cc1ccc(Cn2nnc3c(=O)[nH]c(C4CCN(C(=O)Cc5cccs5)CC4)nc32)cc1 | 4.8
COC(=O)C(NC(=O)c1ccco1)(Nc1ccc(Br)cn1)C(F)(F)F (stereo not drawn) | i

Reprinted at random: 3 records from the list, in no set order.
Structure | H5N1 CPE
Cc1cc(C)nc(SC2CCCCC2O)n1 (stereo not drawn) | 0.9
Cc1ccccc1CSc1nc2n(n1)C(c1cccs1)C1=C(CCCC1=O)N2 (stereo not drawn) | i
COC(=O)C(NC(=O)c1ccco1)(Nc1ccc(Br)cn1)C(F)(F)F (stereo not drawn) | i

(more compounds)
Structure | H5N1 CPE
COc1cccc2[nH]c3c(N4CC(C)CC(C)C4)ncnc3c12 (stereo not drawn) | 1.2
O=C(Cc1ccccc1)NC(=S)Nc1ccc2oc(-c3ccccc3F)nc2c1 | i
Cc1ccc(S(=O)(=O)Cn2nnnc2C(C)N2CCN(C(=O)c3ccco3)CC2)cc1 (stereo not drawn) | 1.6
CCCCCOC(=O)Nc1nnc(CCCCC)s1 | i
O=C(NCc1ccccc1)C(c1ccco1)N(C(=O)c1cnccn1)c1ccc(F)cc1 (stereo not drawn) | i
O=C(O)c1ccccc1C(=O)N1CCN(c2ccccc2)CC1 | i
COc1cccc2c1nc(C)c1cc(C)oc12 | i
COc1ccc(C(=O)Nc2oc(-c3ccccc3)c(-c3ccccc3)c2C#N)cc1 | i
COc1ccc(C(NC(=O)c2cccnc2)c2cc(Cl)c3cccnc3c2O)cc1OC (stereo not drawn) | i
Cc1cc(C)nc(SCc2csc(N)n2)n1 | 1.6
COC(=O)CSCC(=O)Nc1cc2c(cc1C(C)=O)OCO2 | 1.0
CC(C)N(Cc1nc(-c2ccccc2)no1)C(=O)c1ccc(Cl)cc1 | 0.7
O=C(CCc1nc(-c2ccccc2F)no1)NCCN1CCN(Cc2ccccc2)CC1 | i
Cc1ccccc1NC1c2ccccc2C(=O)N1Cc1ccco1 (stereo not drawn) | 4.2
COC(=O)C(NC(C)=O)(Nc1ccccn1)C(F)(F)F (stereo not drawn) | 0.1
COC(=O)c1sc(=S)n(-c2cccc(Cl)c2)c1N | i
CCCCc1cc(=O)oc2c(CN3CCCC3)c(O)ccc12 | 0.2
CCOC(=O)CCc1c(C)c2ccc(O)cc2oc1=O | 2.7
O=C(Cn1ccccc1=O)c1cccs1 | i
CC(=O)c1c[nH]c2ccc(C)cc2c1=O | 0.4
O=c1c(Cc2ccccc2)c(O)nc2n1CCS2 | i
CCC(C)(C)n1nnnc1C(C(C)C)N1CCC(C(N)=O)CC1 (stereo not drawn) | i
CCSC(=O)NC12CC3CC(CC(C3)C1)C2 | i
Cc1ccc(C(=O)n2cnnc2N)cc1C | i
Cc1cc(=O)oc(C)c1C(=O)NCC1COc2ccccc2O1 (stereo not drawn) | i
CCOC(=O)c1cnc(SCC(=O)Nc2ccc(N3CCOCC3)cc2)nc1N | i
COc1cccc(Cn2nnc(C(=O)Nc3cc(Cl)ccc3OC)c2N)c1 | i
CCOC(=O)c1[nH]c(C)c(C(=O)NCCN2CCOCC2)c1C | 0.2
Cc1sc2nc(C)n(/N=C/c3ccccc3)c(=O)c2c1C | 5.3
CCc1nc(SCC(=O)N2CCCc3ccccc32)c2oc3ccccc3c2n1 | 18
O=C(Nc1ccc(Cl)cc1)Nc1nc(-c2sccc2Br)cs1 | i
CC1=C(C(=O)OCCOC(C)C)C(c2cccnc2)C2=C(CCCC2=O)N1 (stereo not drawn) | 0.2
Cc1ccc(CNC(=O)CCc2nc3ccccc3c(=O)[nH]2)cc1 | 0.4
O=C(O)CCSc1nnc(-c2cccnc2)n1-c1ccccc1 | i
COc1ccc(N2CC(O)=C(c3nc(C)cs3)C2=N)cc1 | 1.3
COc1cc(S(=O)(=O)NCC2COCCO2)ccc1-n1cnnn1 (stereo not drawn) | 0.5
CC(C)(C)SCCNC(=O)CN(c1ccc(F)cc1)S(C)(=O)=O | 1.8
CC1CCN(C(=O)C2CCN(CCCc3ccccc3)CC2)CC1 | i
C=CCn1c(-c2cccs2)nc2nc3ccccc3nc21 | i
Cc1nn2cc(-c3ccc(Cl)cc3)nc2s1 | 0.9
Cc1ccc(CS(=O)(=O)CCC(=O)NCCN2CCCCC2C)cc1 (stereo not drawn) | 1.2
CCOC(=O)c1sc(-c2ccccc2)cc1N | i
CC(C)Cn1c(N)c(C(=O)CSc2nnnn2C)c(=O)n(C)c1=O | i
CCOc1ccc(/C(O)=C2/C(=O)C(=O)N(CCOCCO)C2c2cccnc2)cc1 (stereo not drawn) | i
CCOC(=O)C1CCN(C(=O)Nc2ccc3nc(C)c(C)nc3c2)CC1 | i
N#Cc1c(N)c(C#N)c(-c2ccc(O)cc2)c2c1CCCC2 | 1.2
Cc1ccc(NC(=S)NNC(=O)c2cn(C)nc2C)cc1 | i
O=c1c2c3c(sc2n2cnnc2n1-c1ccccc1)N(Cc1ccccc1)CCC3 | 5.3
COC(=O)c1ccccc1NC(=O)Cn1nc(C(F)(F)F)c2c1CCC2 | 0.7
Cc1noc(C)c1CSc1nnc(-c2c[nH]c3ccccc23)n1-c1ccc(Cl)cc1 | i
COc1cc(C)c(Cl)c(C)c1S(=O)(=O)NCc1cccnc1 | 2.1
COCCN(CCOC)S(=O)(=O)c1ccc(OC)cc1 | i
COc1ccc(-n2c(Cc3cccn3C)nnc2SCC(=O)Nc2ccc3c(c2)OCO3)cc1 | 1.1
CCOc1ccccc1NC1=C(Cl)C(=O)N(Cc2ccccc2)C1=O | i
O=S(=O)(Nc1ccccc1N1CCCCC1)c1ccc(Cl)s1 | 8.2
CC(OC(=O)c1cc2sccc2n1C)C(=O)NCc1ccco1 (stereo not drawn) | i
CCc1nc(Nc2ccc3c(c2)OCO3)c2oc3ccccc3c2n1 | 1.2
CC(=O)Nc1nonc1-c1nc2ccccc2n1CC1CC1 | 0.7
Cc1cc(C)n2cc(CSc3ncccc3C(=O)O)nc2n1 | i
COc1ccc(OC)c(NC(=O)Cn2c(CCC(=O)O)ccc2-c2cccs2)c1 | 0.1

(listing goes on)
Structure | H5N1 CPE
CCC(Sc1nc(C)cc(=O)[nH]1)C(=O)Nc1nc(-c2ccccc2)cs1 (stereo not drawn) | 0.6
COc1ccc(NC(=O)Cn2nc3n(c2=S)CCC3)cc1 | 0.0
O=C(NCCc1cccc(Cl)c1)c1cccnc1 | 0.9
CCOC(=O)c1[nH]c(C)c(C(=O)NC2CCCCC2)c1C | i
CCOC(=O)C1CN(S(=O)(=O)c2cccc(C(F)(F)F)c2)c2cc(CC(=O)OC)ccc2O1 (stereo not drawn) | 1.1
Cc1[nH]nc2c1C(c1cccc(O)c1)C1=C(CC(C)(C)CC1=O)N2 (stereo not drawn) | 7.2
O=C(CCC(=O)Nc1nnc(C2CCCCC2)s1)NCC1CCCO1 (stereo not drawn) | i
COc1ccc(-n2cc(C(=O)c3cc4ccccc4oc3=O)c(C(C)=O)n2)cc1 | i
c1ccc(-c2csc(NNC3=NCCCCC3)n2)cc1 | i
O=C(CSc1ccc2c(c1)OCCO2)Nc1ccc2c(c1)OCO2 | i
O=C(c1ccccc1)N1CCC(c2nc3c(nnn3Cc3ccco3)c(=O)[nH]2)CC1 | 4.2
CCOC(=O)c1cc(C)n(Cc2cccc(OC)c2OC)c1C | 0.1
COc1ccccc1NC(=O)N(Cc1ccccc1)C1=NCC(C)S1 (stereo not drawn) | 0.6
N#Cc1nc(-c2cccc3ccccc23)oc1NCCN1CCCCC1 | i
COC(=O)c1sccc1NS(=O)(=O)c1ccc(OC)cc1 | 2.1
CCOC(=O)C(CC)n1cnc2c(oc3ccccc32)c1=O (stereo not drawn) | 0.8
CNC(=O)Cn1nc(C)c2ccccc2c1=O | 2.2
O=C(N1CCCC1)C12CCC3CC(CC(C3)C1)C2 | 2.0
O=C(N1CCCCC1)N1CCCN(C(=O)N2CCCCC2)CC1 | i
O=C(CN1CCCN(S(=O)(=O)c2ccc(Br)cc2)CC1)Nc1ccc2c(c1)OCO2 | 11

Some of these compounds in order of count of non-hydrogen atoms, highest first:
Structure | H5N1 CPE
CCOC(=O)C1CN(S(=O)(=O)c2cccc(C(F)(F)F)c2)c2cc(CC(=O)OC)ccc2O1 (stereo not drawn) | 1.1
COc1ccc(-n2cc(C(=O)c3cc4ccccc4oc3=O)c(C(C)=O)n2)cc1 | i
O=C(CCC(=O)Nc1nnc(C2CCCCC2)s1)NCC1CCCO1 (stereo not drawn) | i

(continued)
Structure | H5N1 CPE
Cc1ccc(C)c(NC(=O)c2nnn(Cc3ccccc3C)c2N)c1 | i
CC(C)(C)NC(=O)CN(C(=O)CS(=O)CC(=O)Nc1ccc(F)cc1)c1ccc(F)c(Cl)c1 (stereo not drawn) | i
O=C(Nc1ccnc(-c2cccnc2)n1)c1ccc(Cl)c(Cl)c1 | 0.2
Cc1ccc(C(=O)c2cn[nH]c2-c2cc(Cl)ccc2O)cc1 | 5.4
Cc1cc(C)n(C(=O)c2cc3c(s2)CCCC3)n1 | 1.8
Cc1ccc(SCCNC(=O)c2cccc([N+](=O)[O-])c2C)cc1 | 0.9
CC(C)c1cc(N2CCN(C(=O)c3ccco3)CC2)n2c(nc3ccccc32)c1C#N | 1.9
COc1ccc(N2CCN(C(=O)CCCN3C(=O)c4cccc5cccc(c45)C3=O)CC2)cc1 | 0.6
O=C(Nc1ccccc1C(F)(F)F)N1CCN(c2ccc3nncn3n2)CC1 | 0.6
Cc1ccc(C(=O)Nc2ccncc2)o1 | 2.1
CC(C)(C)C(=O)c1no[n+]([O-])c1/C(=N/O)C(C)(C)C | 3.0
Cc1ccc(C)n1-c1nc(=S)[nH][nH]1 | 1.0
O=C1CS/C(=C\[N+](=O)[O-])N1c1ccc(OC(F)(F)F)cc1 | i
Cc1cc(=O)oc(C)c1C(=O)NCc1cccnc1 | 0.7
O=C(CN(Cc1ccco1)C(=O)c1cccc(Cl)c1)Nc1c(Cl)cc(Cl)cc1Cl | i
Cc1cc(C)c(C)c(S(=O)(=O)ON2C(=O)c3ccccc3C2=O)c1C | 0.8
Cc1ccnc(NS(=O)(=O)c2ccc(CC(C)C)cc2)c1 | 0.7
O=C(NCCc1ccc(Cl)cc1)C1CCC(=O)N1C1CCCC1 (stereo not drawn) | 0.2
Cc1ccc(CSc2nnc(-c3cccnc3)o2)cc1 | i
Cc1ccc(-c2nnc(SCc3ccc(C#N)cc3)n2Cc2ccco2)cc1 | 0.1
CCCNC(=O)c1cc(-c2ccc(OC)cc2)on1 | i
NS(=O)(=O)c1ccc(CCNC(=O)C2CCCN(S(=O)(=O)c3cccnc3)C2)cc1 (stereo not drawn) | 0.5
CCCCOC(=O)c1ccc(-c2ccc(/C=N/NC(=S)NCC)o2)cc1 | i
O=C1c2ccccc2C(=O)N1CCCc1nc2ccccc2c(=O)n1Cc1ccco1 | 2.1
COc1ccc(Oc2cc(C)c3ccccc3n2)cc1 | 0.9
CCOc1cc2c(C#N)c(N3CCCCC3)nc(N)c2c(N)n1 | 0.3
O=C(CCNC(=O)Cn1ccc2ccccc2c1=O)NCCN1CCN(c2cccc(Cl)c2)CC1 | 0.5
CCCCCCC1CCC(c2nc(-c3ccncc3)no2)CC1 (stereo not drawn) | i
CCn1c(SCC(=O)NCc2ccccc2)nnc1-c1ccccc1O | i
CCc1ccccc1NC(=O)C(CC)Sc1nc2cc3c(cc2c(=O)n1Cc1ccco1)OCO3 (stereo not drawn) | i
Cn1cnc2cc(NC(=O)c3ccc(Cl)cc3)ccc21 | i
COC(=O)C(C)Sc1snnc1-c1ccccc1 (stereo not drawn) | i

Grouped by structure: those above containing a COOH group (5)
Structure | H5N1 CPE
COc1cc(C2/C(=C(/O)c3ccc(F)cc3)C(=O)C(=O)N2CCCC(=O)O)ccc1O (stereo not drawn) | i
O=C(O)c1ccccc1C(=O)N1CCN(c2ccccc2)CC1 | i
O=C(O)CCSc1nnc(-c2cccnc2)n1-c1ccccc1 | i
Cc1cc(C)n2cc(CSc3ncccc3C(=O)O)nc2n1 | i
COc1ccc(OC)c(NC(=O)Cn2c(CCC(=O)O)ccc2-c2cccs2)c1 | 0.1
